PINK1 expr mod: A Quantitative High throughput Screen to Identify Chemical Modulators of PINK1 Expression | PINK1 immunofluorescence, high-content cytometry, 24 h | Potency, µM (series often up to 76.6 µM), for inactives: top-dose activation (PINK1 increase), hits mostly activators | 410,000 compounds, 0.2% hits | AID 624263, 2012; active = well fitted activation curve with a large enough effect; inconclusive = small, poorly fitted or top-dose-only effect; inactive = flat fitted curve, though single readings scatter; cell line not stated here;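 note: potency is the fitted concentration of half-maximal effect; % of control where 0% means no effect; nearly all actives have a fitted effect of over 65% in size; a mitochondrial uncoupler was the plate control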
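Readout is PINK1 immunofluorescence, quantified alongside mitochondrial, cell and nuclear markers by laser-scanning microplate cytometry. Cells from a stable line were exposed to compound titrations (5 concentrations) for 24 hours, with CCCP controls.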
CtBP-E1A inh: qHTS Assay for Inhibitors of the CtBP/E1A Interaction. CtBP / adenovirus E1A interaction (AlphaScreen). AID 651724, 2012. AlphaScreen GST-E1A/His-CtBP binding, 1536-well; active compounds read low; control for the full effect not named in the record. 340,000 compounds, 0.49% hits. activity change, % (concentration not given with the values); in the data active means activity change below about -65%; inconclusive means about -30% to -65%; inactive means above about -30%; note: % is set by controls: 0 for no effect and ±100 for the full control effect
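AlphaScreen with 125 nM GST-E1A and 125 nM His-CtBP (5X stocks) in Tris pH 8.0, 300 mM NaCl, BSA, Tween 20, TCEP. Compounds preincubated 2 h at 37 deg C, then glutathione donor/nickel acceptor beads added for 1 h at 37 deg C in dark.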
TRPV1 PAM: HTS Assay for Compounds that Act as Potentiators of the Vanilloid Receptor 1; Transient receptor potential cation channel subfamily V member 1 (Homo sapiens), Q8NER1; TRPV1-expressing cells, Fluo-8 calcium influx, capsaicin EC20 potentiation; host cell line not named in the record; control for the full effect not named in the record; potentiation, % at 8.33 µM; 320,000 compounds, 0.02% hits; active means potentiation above 80%; inconclusive means 30% to 80%; inactive means below 30%; note: 0% is about no effect
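TRPV1-expressing cells were cultured overnight at 35.5C and loaded with Fluo-8 calcium dye for 40 to 90 min at room temperature. After a 10 s baseline, compound was added and calcium influx was read kinetically for 3 min (ex 480/em 520 nm).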
Sfp PPTase inh: qHTS Assay for Inhibitors of Bacillus subtilis Sfp phosphopantetheinyl transferase (PPTase); Potency, µM, inactives show max response, negative = inhibition, usual class: inhibitors; 310,000 compounds, 3.5% hits; AID 1490, 2009; Biochemical Sfp PPTase activity, qHTS; 4'-phosphopantetheinyl transferase ffp (Bacillus subtilis), Q9F4F7; active = well fitted inhibition curve with a large enough effect; inconclusive = small, poorly fitted or top-dose-only effect, or another doubt; inactive = no such curve, though single readings can be large or run the other way;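 note: the enzyme is Sfp with the accession as filed and its product quenches rhodamine fluorescence; potency is the fitted concentration of half-maximal effect; 0% = enzyme reaction without inhibitor and -100% = no enzyme wells; top concentration of the series not given in the record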
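Reaction rates are the 30-min fluorescence difference (ex 525, em 598 nm) in wells containing 15 nM Sfp, 5 uM rhodamine-CoA and 12.5 uM BHQ-2-YbbR at pH 7.6 with 10 mM MgCl2.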
D2 agonist: Beta-Arrestin HTS for Positive Allosteric Modulators of the Human D2 Dopamine Receptor: Agonists | activation, % (no concentration beside the values) | 360,000 compounds, 0.084% hits | DiscoveRx PathHunter D2 beta-arrestin, luminescence, 90 min; 100% = 57 uM dopamine signal | D(2) dopamine receptor (Homo sapiens), P14416; in the data active = activation above about 40%; inconclusive = about 15% to 40%; inactive = below about 15%; note: compound concentration not given in the record; the text of the record calls up to 30% inactive
Target sequence (P14416 whole entry, looked up): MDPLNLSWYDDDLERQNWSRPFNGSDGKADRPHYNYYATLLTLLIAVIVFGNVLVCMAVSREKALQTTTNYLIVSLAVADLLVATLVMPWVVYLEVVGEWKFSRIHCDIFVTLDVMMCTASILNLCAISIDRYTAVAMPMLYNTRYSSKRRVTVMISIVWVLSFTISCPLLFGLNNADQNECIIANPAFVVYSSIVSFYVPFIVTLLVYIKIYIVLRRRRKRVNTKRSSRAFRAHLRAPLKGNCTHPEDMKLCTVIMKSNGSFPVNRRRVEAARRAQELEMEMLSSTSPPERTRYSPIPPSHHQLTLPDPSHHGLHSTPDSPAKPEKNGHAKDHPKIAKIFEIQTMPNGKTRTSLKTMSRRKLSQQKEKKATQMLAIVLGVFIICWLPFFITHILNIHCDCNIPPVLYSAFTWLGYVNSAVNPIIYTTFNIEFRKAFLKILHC
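DiscoveRx PathHunter D2 beta-arrestin cells (2,100/well) attached overnight, then compound-stimulated 90 min at 37 C in HBSS/10 mM HEPES/0.1% Tween-20 buffer; beta-galactosidase complementation read by luminescence after 1 h at ambient temperature. Dopamine 57 uM final (EC100) as control.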
Six1-Eya2 blk: qHTS Assay for Inhibitors of the Six1/Eya2 Interaction; Homeobox protein SIX1 (Homo sapiens) + Protein phosphatase EYA2 (Homo sapiens), …; AlphaScreen GST-Six1/His-Eya2 binding, biochemical; active compounds read low; control for the full effect not named in the record; activity change, % (no concentration beside the values); 360,000 compounds, 0.56% hits; AID 651725, 2012; in the data active = activity change below about -65%; inconclusive = about -30% to -65%; inactive = above about -30%; note: % is set by controls: 0 for no effect and ±100 for the full control effect
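Six1/Eya2 binding was read as AlphaScreen signal after compounds were pinned into GST-Six1 plus His-tagged Eya2 (5X stock 250/500 nM) in pH 8.0 Tris/NaCl/TCEP buffer, beads added, then incubated 1 h, 37 C, dark.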
D2 PAM: Beta-Arrestin HTS for Positive Allosteric Modulators of the Human D2 Dopamine Receptor: Potentiators | potentiation, % (no concentration beside the values) | DiscoveRx D2 beta-arrestin cells, luminescence, 90 min; 100% = 57 uM dopamine signal | D(2) dopamine receptor (Homo sapiens), P14416 | 360,000 compounds, 0.23% hits; active = potentiation of 50% or more; inconclusive = 30% to 50%; inactive = 30% or less;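 note: compound concentration not given in the record; tested on top of an EC20 dose of dopamine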
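PathHunter beta-arrestin assay in DiscoveRx D2 cells. Compounds were added with an EC20 of dopamine (50 nM final) for 90 min at 37 deg C. Luminescence was read 1 h after detection reagent, with 57 uM dopamine as the EC100 control.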
An asterisk follows results filed as active; ? = inconclusive; . = not tested or not shown; [ ] = remark or other dose.

Results follow in this order: PINK1 expr mod	CtBP-E1A inh	TRPV1 PAM	Sfp PPTase inh	D2 agonist	Six1-Eya2 blk	D2 PAM
COc1ccc(-c2nn(-c3ccccc3)cc2/C=C\C(=O)Nc2ccc(C(=O)O)cc2)cc1
→ 0.6%	-13.4	-0.4	-5.9%	-2.5	-8.5	2.0
FC(F)(F)c1ccc(/C=N/NC(=S)NC2CCCCC2)cc1
→ 7.0%	0.2	5.3	20.1%	0.3	5.4	-1.1
Cc1noc(C)c1CC(=O)N1CCCC(C(=O)c2ccc(C(C)(C)C)cc2)C1 (stereo not given)
→ 0.0%	.	-16.0	8.0%	-1.9	9.8	-9.4
COc1cc(/C=C/C(=O)N2CCc3ccccc3C2)cc(OC)c1OC
→ -1.3%	.	-10.9	1.4%	-2.0	-1.2	-43.3
CNC(=O)CSc1nc2ccccc2c(=O)n1CCc1ccccc1
→ 5.8%	1.4	-15.3	12.1%	0.1	0.0	-2.4
CC(C)CNC(=S)NC1CC2CCCC(C1)N2C1CCCCC1 (stereo not given)
→ 0.0%	4.8	-1.4	9.3%	-4.6	5.5	-8.3
Cc1ccc(NC(=O)OCC(F)(F)C(F)F)cc1NC(=O)OCC(F)(F)C(F)F
→ -1.3%	9.5	12.5	26.5%	-0.9	-0.9	-9.1
Clc1ccccc1N1CCN(c2ncnc3nc[nH]c23)CC1
→ 0.6%	5.7	28.3	8.8%	-1.6	0.5	-8.0
O=C(O)c1cc(-c2ccccc2)n(-c2ccccc2)n1
→ -1.2%	2.5	-18.2	21.9%	-1.9	-2.0	-6.0
Cc1ccc(S(=O)(=O)N2CCOCC2)cc1C(=O)OCC(=O)NCc1ccc2c(c1)OCO2
→ 0.5%	-0.2	3.2	.	-1.6	-1.8	-1.0
Cc1cc(C(=O)Nc2ccon2)ccc1[N+](=O)[O-]
→ 1.4%	3.9	.	.	-1.4	4.1	-8.4
CCC(C(=O)NCCN1CCOCC1)n1nc(C)n2c(cc3sccc32)c1=O (stereo not given)
→ -0.1%	7.3	5.4	9.9%	1.6	5.5	-7.9
COCCCN1C(=O)C(CC(=O)NCc2cccs2)CC(C(=O)N(C(C)C)C(C)C)=C1C (stereo not given)
→ 2.4%	5.6	.	.	-3.0	2.3	-4.1
O=C1CCC(c2ccccc2)N1c1ccccc1 (stereo not given)
→ -4.9%	9.1	.	.	-4.1	0.0	-15.2
CCOc1ccccc1NC(=O)C(OC(=O)c1ccccc1NS(=O)(=O)c1cccs1)c1ccccc1 (stereo not given)
→ -0.4%	-1.9	-8.9	3.9%	1.9	3.8	-1.8
C=CC[C@H](CC(=O)N(CCO)Cc1ccccc1)C(=O)N[C@@H](COC(=O)[C@H](CC=C)CC(=O)OC(C)(C)C)Cc1c[nH]c2ccccc12
→ 0.2%	-11.8	.	.	4.4	-16.0	3.5
O=C(c1cccs1)C1CCCN(Cc2nc(Cc3ccccc3F)no2)C1 (stereo not given)
→ 2.3%	.	-14.9	-3.3%	-4.2	26.0	-5.3
CCN(CC)C(=O)CNc1ccc(C(F)(F)F)cc1[N+](=O)[O-]
→ -0.1%	-4.6	-11.8	3.8%	-1.4	1.0	16.1
O=C(CC(=O)c1cccs1)c1ccncc1
→ 2.1%	-9.8	.	.	-0.8	-12.9	-6.2
O=S(=O)(c1ccccc1)c1cnn2c(C(F)(F)F)cc(-c3ccccc3)nc12
→ 9.9%	2.5	-0.1	19.9%	7.0	1.9	27.9
Cc1c(C#N)c2ccccc2n1CC(=O)N1CCc2ccccc2C1
→ 0.0%	3.1	-1.6	-1.1%	-2.3	-0.8	-3.4
O=C(COc1ccc2ccc(=O)oc2c1)NCCCN1CCCC1=O
→ 0.3%	1.6	-9.2	14.2%	-1.3	-0.6	-6.5
CCCCn1c(SCC(=O)N2CCOCC2)nnc1-c1cccs1
→ 1.0%[38.3 µM]	1.4	-0.8	15.4%	1.1	4.3	1.0
O=c1[nH]c(SCc2cccc(F)c2)nc2c1CCCC2
→ 1.9%	23.1	-1.0	3.6%	-5.6	3.6	-2.7
O=C(CCN1C(=O)/C(=C\c2cccs2)SC1=S)Nc1nccs1
→ ?	-1.9	12.0	5.4%	-2.8	-1.8	1.9
C[C@@]12C(=O)N(Cc3ccco3)CC(=O)N1[C@H]1c3ccccc3OC[C@@H]1[C@@H]2c1ccccc1
→ -0.7%	-8.5	.	.	-0.5	-15.4	-8.3
CCOC(=O)N1CCC(N2C(=O)c3ccccc3C2Nc2ccc(S(=O)(=O)N(CC)CC)cc2)CC1 (stereo not given)
→ 1.5%	-13.7	0.9	12.9%	-1.7	1.0	-11.0
CC1(C)CN(c2cccc(-c3ccnc4ncnn34)c2)C1=O
→ 3.3%	-0.3	6.8	16.4%	-1.6	3.3	-23.0
Cc1ccsc1C(=O)OCC(=O)NCCC1=CCCCC1
→ 1.6%	8.3	-9.7	8.5%	-1.5	0.2	-11.8
Cc1ccc2cc(C#N)c(NCCNC(=O)C3CCC3)nc2c1C
→ 4.7%	20.8	-12.0	13.1%	2.7	15.5	2.7

One compound at a time, from the list above. Values in the order: PINK1 expr mod	CtBP-E1A inh	TRPV1 PAM	Sfp PPTase inh	D2 agonist	Six1-Eya2 blk	D2 PAM
O=C(COc1ccc2ccc(=O)oc2c1)NCCCN1CCCC1=O reads 0.3%	1.6	-9.2	14.2%	-1.3	-0.6	-6.5
Cc1ccc(NC(=O)OCC(F)(F)C(F)F)cc1NC(=O)OCC(F)(F)C(F)F reads -1.3%	9.5	12.5	26.5%	-0.9	-0.9	-9.1
FC(F)(F)c1ccc(/C=N/NC(=S)NC2CCCCC2)cc1 reads 7.0%	0.2	5.3	20.1%	0.3	5.4	-1.1
O=c1[nH]c(SCc2cccc(F)c2)nc2c1CCCC2 reads 1.9%	23.1	-1.0	3.6%	-5.6	3.6	-2.7
COc1cc(/C=C/C(=O)N2CCc3ccccc3C2)cc(OC)c1OC reads -1.3%	.	-10.9	1.4%	-2.0	-1.2	-43.3

(list continues)
Results follow in this order: PINK1 expr mod	CtBP-E1A inh	TRPV1 PAM	Sfp PPTase inh	D2 agonist	Six1-Eya2 blk	D2 PAM
COCCCn1c(=O)/c(=C\c2ccccc2OC(F)F)s/c1=C(/C#N)C(=O)N1CCOCC1
→ 0.6%	0.0	4.5	-0.6%	-2.2	-5.0	-8.1
COc1ccc(NC(=O)CSc2nnnn2-c2ccccc2F)cc1
→ 10.6%	-6.8	-10.2	19.5%	-2.4	4.7	-2.2
COc1ccccc1C(=O)C1CCCN(C(=O)c2cc(CC(C)C)nc(C)n2)C1 (stereo not given)
→ 0.2%	13.7	-12.5	-5.6%	0.8	5.1	-3.2
CCc1ccc(NC(=S)N(CCOC)C2CCN(C(C)=O)CC2)cc1
→ 2.5%	.	-8.9	-4.3%	-3.6	0.9	-8.1
NC(=O)c1sc2nc3c(cc2c1N)CCC3
→ -0.4%	.	0.2	0.4%	-2.1	-15.1	-8.2
COc1ccc(-c2nc(CS(=O)CC(=O)NCc3ccc4c(c3)OCO4)c(C)o2)cc1 (stereo not given)
→ -1.4%	9.9	.	10.5%	-1.6	-0.1	-7.2
COc1ccc(NC(=O)c2ccc(COc3ccccc3Br)o2)cc1OC
→ -1.2%	-20.3	1.9	6.6%	2.9	-12.2	8.2
Cc1ccc(S(=O)(=O)CC(=O)Nc2nc(-c3ccccc3)cs2)cc1
→ 1.2%	-0.2	7.1	2.5%	-0.3	-13.5	-16.8
Cc1cc(C)c(-c2csc(Cc3nc(-c4cc5ccccc5oc4=O)cs3)n2)cc1C
→ 10.7%	23.2	-3.1	9.9%	3.1	15.5	-2.5
Cc1cc(C)c(C(=O)C(C)OC(=O)Cc2n[nH]c(=O)c3ccccc23)cc1C (stereo not given)
→ 2.4%	-1.7	?	8.0%	-3.0	-2.0	-3.7
C=CCn1c(SCc2nc3ccccc3c(=O)[nH]2)nnc1-c1cc2cc(Cl)ccc2o1
→ 9.6%	-3.2	-3.0	-13.1%	-2.4	6.1	-6.3
Cc1ccc(CC(=O)NCCC(=O)O)cc1
→ 0.3%	11.7	1.7	18.1%	1.1	5.7	-2.9
CC(=O)Nc1ccc(N(C(=O)CNC(=O)c2ccco2)C(C(=O)NC2CCCC2)c2ccco2)cc1 (stereo not given)
→ 1.0%	-8.0	-6.8	24.8%	-17.2	5.9	-18.8
Cc1ccc(S(=O)(=O)N2C[C@H]3C(=O)C[C@@H](c4ccccc4)N(S(=O)(=O)c4ccc(C)cc4)[C@H]3C[C@H]2c2ccc(Cl)cc2)cc1
→ 2.5%	-9.5	.	.	-10.7	0.9	2.3
Cc1onc(-c2ccccc2)c1C(=O)OCC(=O)N(C)c1c(N)n(Cc2ccccc2)c(=O)[nH]c1=O
→ 1.4%	1.6	8.0	.	-4.8	-4.1	-23.5
COc1ccccc1CNCC(=O)N1CC(=O)Nc2ccccc21
→ -0.2%	.	-1.7	-28.6%	-3.7	1.7	-11.6
O=C(CNC(=O)c1ccccc1)NCC1COc2ccccc2O1 (stereo not given)
→ 1.4%	1.9	0.3	13.3%	-1.9	26.9	3.2
COc1ccc(C(CNC(=O)c2ccc(N3CCCC3=O)cc2)N(C)C)cc1 (stereo not given)
→ -1.2%	1.4	7.3	9.6%	-3.2	4.8	-9.8
COc1ccc(CN(Cc2cccn2C)S(=O)(=O)c2ccc(C)cc2)cc1
→ 0.7%	-1.3	3.7	-5.6%	-1.5	-21.5	-10.6
